# Screening data deposited in PubChem BioAssay by several laboratories.
# Arbovirus inh: antivirals against arbovirus infection; arbovirus infection cell-based antiviral screen; inhibition, % at 10 µM; 200,000 compounds, 0.37% hits;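 active = inhibition from about 30%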;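 also: bluetongue infection of BSR cells; cell survival read as ATP light after 72 h; 0% = infected wells without compound and 100% = uninfected wells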
# RecA intein inh: Mtb RecA intein splicing inhibition | inhibition, %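 (about 9 µM by stock and volumes)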 | 290,000 compounds, 0.75% hits | cell-free RecA intein splicing, fluorescence; in the data active = inhibition above about 30%; inconclusive = no clear call, values can overlap the other calls;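 also: 0% = vehicle wells and 100% = reference inhibitor control wells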
# Target sequence (P9WHJ3 whole entry, looked up): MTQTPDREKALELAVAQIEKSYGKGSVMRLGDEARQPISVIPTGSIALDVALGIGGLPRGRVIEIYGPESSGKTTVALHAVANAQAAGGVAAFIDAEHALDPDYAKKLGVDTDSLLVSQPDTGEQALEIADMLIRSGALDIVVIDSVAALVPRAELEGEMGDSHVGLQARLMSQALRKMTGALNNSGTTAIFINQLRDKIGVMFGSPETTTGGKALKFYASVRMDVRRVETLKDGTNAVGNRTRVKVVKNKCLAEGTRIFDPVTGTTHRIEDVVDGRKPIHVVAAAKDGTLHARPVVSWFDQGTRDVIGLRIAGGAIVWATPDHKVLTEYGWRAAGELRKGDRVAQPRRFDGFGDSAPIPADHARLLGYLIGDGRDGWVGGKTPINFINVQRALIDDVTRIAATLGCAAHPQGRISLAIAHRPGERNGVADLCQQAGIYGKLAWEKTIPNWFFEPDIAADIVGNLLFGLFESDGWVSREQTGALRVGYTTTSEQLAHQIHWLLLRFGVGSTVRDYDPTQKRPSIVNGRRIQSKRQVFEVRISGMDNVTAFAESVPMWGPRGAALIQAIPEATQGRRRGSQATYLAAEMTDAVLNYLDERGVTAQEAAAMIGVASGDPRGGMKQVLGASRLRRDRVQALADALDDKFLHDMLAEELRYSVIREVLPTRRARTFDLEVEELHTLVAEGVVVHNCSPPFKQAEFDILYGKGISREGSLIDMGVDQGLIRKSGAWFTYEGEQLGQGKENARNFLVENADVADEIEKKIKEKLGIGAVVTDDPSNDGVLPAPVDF
# Mtb H37Rv: M. tuberculosis H37Rv growth inhibitors, H37Rv strain (AID 1626) | 220,000 compounds, 0.95% hits | M. tuberculosis H37Rv growth inhibition; higher % means a stronger effect | inhibition, % at 10 µM; hits with a dose series show IC50 in µM;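 active = confirmed in a dose series; inconclusive = inhibition above 80% but not taken into the dose series; inactive = below 80% or under 30% at every dose of the series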;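 also: bacteria incubated seven days before Alamar blue readout; 0% = bacteria only wells and 100% = bacteria with antibiotic wells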
# YopH inh: blocks Yersinia enterocolitica YopH tyrosine phosphatase | fluorescence Ex485/Em525 | inhibition, %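 (about 10 µM by stock and volumes)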 | 140,000 compounds, 0.16% hits | AID 898;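 active = inhibition of 50% or more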;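 also: controls were vehicle for no effect and minimum signal wells for full effect; inactives centre near -20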
# Mtb betalactam: beta-lactam sensitization of Mtb H37Rv | M. tuberculosis H37Rv growth with meropenem, percent inhibition; hits of this screen are not shown here | inhibition, % at 25 µM | 330,000 compounds, 0.27% hits;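 active = about 74% or more and at least 40 points above the plate without the antibiotic, then above 30% in a dose series; inconclusive = first-round hits that could not be retested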;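 also: growth measured after seven days incubation then overnight dye step; 0% = bacteria only wells and 100% = bacteria with antibiotic; twin plates without the antibiotic show which effects depend on it; some results filed as inactive read as strong as hits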
# Arbovirus inh repeat: further read-out of Arbovirus inh, marked with its call; inhibition, %; measured here: 10K subset replicate screen; many hits read low in the repeat;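 first of two repeat runs on a subset; 0% = infected and 100% = uninfected wells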
# An asterisk follows results filed as active; ? = inconclusive; · = no result given. Only part of the results is shown. The share of hits here may be higher or lower than overall.
# The first 14 records as a preview:
SMILES,Arbovirus inh,RecA intein inh,Mtb H37Rv,YopH inh,Mtb betalactam,others
Cn1nc(C(F)(F)F)cc1C(=O)O,·,-0.7,-6.3%,·,-2.7,
O=C(COc1coc(CN2CCN(c3ccccc3)CC2)cc1=O)N1CCc2ccccc21,·,-1.6,·,·,-5.3,
OCCC1CN(Cc2ccc(Oc3ncccn3)cc2)CCN1Cc1ccc(F)c(F)c1 (centres undefined),·,0.5,1.2%,·,0.5,
Cc1ccc(C)c(OCCC(=O)OCC(=O)Nc2cccc(S(=O)(=O)N3CCCC3)c2)c1,·,7.1,·,·,1.5,
COc1ccc(C(C(=O)NC(C)(C)C)N(CCc2ccccc2)C(=O)CCC(=O)Nc2cc(C)on2)cc1 (centres undefined),·,-0.8,·,·,3.5,
COc1nonc1NCn1nc(C)cc1C,-6.1,0.9,-2.5%,-16.5,-3.8,
Cc1cccc(N(O)C(=O)Nc2cccc(Cl)c2)c1,·,0.0,·,·,3.9,
Cc1ccc(NC(=O)c2cc(S(=O)(=O)N3CCCC3)cn2C)cc1,·,2.0,·,·,5.0,
O=C(c1nc2ccccc2s1)N1CCSCC1,3.6,1.9,-11.1%,-33.0,-2.6,
O=C(NC1=NCCS1)c1ccc(Br)s1,-4.1,0.2,2.8%,-22.3,-4.6,
CCC1CCCCN1S(=O)(=O)c1ccc(C(=O)Nc2nnc(C3CC3)o2)cc1 (centres undefined),·,-1.0,·,·,91.4,
O=C(N/N=C/c1cccc([N+](=O)[O-])c1)C1CC(=O)N(c2ccc(F)cc2)C1 (centres undefined),-3.0,23.7,-2.8%,-21.2,-5.5,
Cc1ccc(S(=O)(=O)N2CCN(C(=O)COc3ccc(-c4nnco4)cc3)CC2)cc1,3.2,-4.2,-11.1%,-40.0,?,
CCO[C@@H]1OC(C(=O)N2CCN(C)CC2)=C[C@H](c2csc3ccccc23)[C@H]1CCCO,-4.0,-0.4,0.3%,·,-6.4,

# Main list, previewed entries included:
SMILES,Arbovirus inh,RecA intein inh,Mtb H37Rv,YopH inh,Mtb betalactam,others
Cn1nc(C(F)(F)F)cc1C(=O)O,·,-0.7,-6.3%,·,-2.7,
O=C(COc1coc(CN2CCN(c3ccccc3)CC2)cc1=O)N1CCc2ccccc21,·,-1.6,·,·,-5.3,
OCCC1CN(Cc2ccc(Oc3ncccn3)cc2)CCN1Cc1ccc(F)c(F)c1 (centres undefined),·,0.5,1.2%,·,0.5,
Cc1ccc(C)c(OCCC(=O)OCC(=O)Nc2cccc(S(=O)(=O)N3CCCC3)c2)c1,·,7.1,·,·,1.5,
COc1ccc(C(C(=O)NC(C)(C)C)N(CCc2ccccc2)C(=O)CCC(=O)Nc2cc(C)on2)cc1 (centres undefined),·,-0.8,·,·,3.5,
COc1nonc1NCn1nc(C)cc1C,-6.1,0.9,-2.5%,-16.5,-3.8,
Cc1cccc(N(O)C(=O)Nc2cccc(Cl)c2)c1,·,0.0,·,·,3.9,
Cc1ccc(NC(=O)c2cc(S(=O)(=O)N3CCCC3)cn2C)cc1,·,2.0,·,·,5.0,
O=C(c1nc2ccccc2s1)N1CCSCC1,3.6,1.9,-11.1%,-33.0,-2.6,
O=C(NC1=NCCS1)c1ccc(Br)s1,-4.1,0.2,2.8%,-22.3,-4.6,
CCC1CCCCN1S(=O)(=O)c1ccc(C(=O)Nc2nnc(C3CC3)o2)cc1 (centres undefined),·,-1.0,·,·,91.4,
O=C(N/N=C/c1cccc([N+](=O)[O-])c1)C1CC(=O)N(c2ccc(F)cc2)C1 (centres undefined),-3.0,23.7,-2.8%,-21.2,-5.5,
Cc1ccc(S(=O)(=O)N2CCN(C(=O)COc3ccc(-c4nnco4)cc3)CC2)cc1,3.2,-4.2,-11.1%,-40.0,?,
CCO[C@@H]1OC(C(=O)N2CCN(C)CC2)=C[C@H](c2csc3ccccc23)[C@H]1CCCO,-4.0,-0.4,0.3%,·,-6.4,
CN(Cc1ncc[nH]1)C(=O)CC1C(=O)NCCN1Cc1c(F)cccc1Cl (centres undefined),4.9,6.2,-5.1%,·,-3.1,
O=C(NC1CCN(C(=O)Nc2cccc(F)c2)CC1)C1CCCCC1,-0.3,-0.4,-4.7%,-0.3,-8.3,
O=C1COc2ccc(C(=O)COC(=O)Cc3ccsc3)cc2N1,0.3,2.0,6.5%,·,0.0,
COc1ccc(Cc2nc(-c3cccs3)no2)cc1,0.9,0.2,9.8%,·,2.3,
CC(=O)c1ccc(N2CCN(C(=O)c3ccc4nc[nH]c4c3)CC2)cc1,3.2,-1.7,4.4%,-23.5,-4.6,
O=C(COc1ccccc1)Nc1ccc(C(=O)N2CCCC2)cc1,·,1.5,·,·,-0.3,
CCCCOc1ccc(C(=O)Nn2c(-c3cccs3)nc3ccccc3c2=O)cc1,2.2,1.0,2.2%,-6.8,-7.7,
COC(=O)c1sc(SC)c(S(=O)(=O)C(C)C)c1N,·,0.1,-6.8%,·,-1.8,
COc1ccc(CC(=O)N/N=C(\C)c2cccs2)cc1,·,-0.8,·,·,-3.5,
CC(C)NC(=O)NC(=O)COC(=O)/C=C/c1ccccc1[N+](=O)[O-],5.8,1.1,-5.0%,·,-0.9,
COc1ccc2cc(C(=O)Nc3ccc(Cl)cc3)sc(=O)c2c1OC,-5.5,-13.9,6.8%,-16.2,0.8,

# Additional compounds follow:
SMILES,Arbovirus inh,RecA intein inh,Mtb H37Rv,YopH inh,Mtb betalactam,others
CCN(CC)C(=O)CSC1c2ccccc2C(=O)N1c1ccccc1 (centres undefined),9.1,0.8,3.3%,-16.0,·,
Cc1ccc(NC(=O)CCCCCN2C(=O)[C@@H]3Cc4ccccc4CN3C2=O)cc1,·,4.2,·,·,-8.5,
CC1CCN(C(=O)c2ccc(S(=O)(=O)Cc3ccccc3F)c([N+](=O)[O-])c2)CC1,-1.5,-4.0,6.5%,-14.3,-3.9,
c1ccc2c(c1)CCCn1nnnc1-2,0.2,-0.5,-5.4%,-43.2,-0.3,
COc1ccc(OC)c(CN2CCN(CCCc3ccccc3)C(CCO)C2)c1 (centres undefined),·,2.1,·,·,2.0,
CCCCSc1[nH]c(=O)c(C(=O)OCC)cc1C#N,39.8*,-5.0,-6.0%,-27.5,0.8,
Cc1ccc(NC(=O)CN(C)C(=O)CSc2nc(C)cc(C)n2)cc1,·,-1.0,·,·,-11.8,
c1ccc2[nH]c(SCc3cn4cccnc4n3)nc2c1,-5.3,-0.3,-8.8%,-29.1,3.2,
O=C(Nc1cccnc1)OC1CCCCC1,10.3,-1.7,1.8%,·,-4.3,
CC(=O)Nc1ccc(NC(=O)CSc2ccc3nnc(-c4ccccn4)n3n2)cc1,·,-2.1,·,·,-0.1,
COc1ccc(CC(=O)Nc2ccccc2N2CCCC2)cc1,·,7.3,·,·,-5.5,
O=C1CN(/N=C/c2ccc([N+](=O)[O-])o2)C(=O)N1,-1.5,0.0,-2.2%,-38.1,69.0,
COc1cccc(C(=O)Oc2cc(N)n(S(=O)(=O)c3ccc(C)cc3)n2)c1OC,2.8,2.1,-2.7%,-42.9,-0.1,
Cc1cc(NC(=O)CSc2nnc(CNc3cccc(C(F)(F)F)c3)n2Cc2ccco2)no1,0.8,2.9,-1.7%,-34.2,9.4,
COc1cccc(-c2cc(C(=O)N3CCc4ccccc4C3)[nH]n2)c1,·,1.7,·,·,-9.8,
O=C(C1CCCO1)N1CCN(C(=S)Nc2cc(F)cc(F)c2)CC1 (centres undefined),·,17.6,·,·,5.3,
O=C(CCN1C(=O)c2ccccc2C1=O)Nc1cccc(O)c1,·,-0.2,·,·,2.0,
COC(=O)c1cnc(Oc2ccc(NC(=O)NC(=O)c3c(F)cccc3Cl)cc2)cc1C(F)(F)F,·,·,13.4%,·,3.9,
COc1ccc(NC(=O)C(CC(=O)O)Cc2ccc(Cl)cc2)cc1 (centres undefined),·,0.6,·,·,9.2,
CCOc1ccc(NC(=O)CSc2nc(=O)n(CCCN3CCOCC3)c3c2CCC3)cc1,·,1.1,·,·,-6.3,
CCCCNC(=O)CNC(=S)N(Cc1ccccc1)Cc1cccnc1,1.1,0.2,-6.1%,1.5,4.5,
CCOc1ccccc1OCC(=O)NN1Cc2ccccc2C1=N,8.7,-0.9,-5.9%,-12.9,-8.2,
Cn1c(C(=O)OCC(=O)NCc2ccc(F)cc2)cc2occc21,·,-1.8,·,·,-2.7,
Cc1nc2ccccc2c2c1CC(C(C)(Cl)Br)O2 (centres undefined),·,3.9,-4.4%,·,4.2,
Cc1cc2ccccc2n1CCNC(=O)C(C)(C)C,0.5,-1.6,8.9%,2.4,6.1,Arbovirus inh repeat=1.9
O=C(O)c1ccc(CN2C(=O)c3ccccc3S2(=O)=O)cc1,-3.7,-1.6,-3.5%,7.6,-3.0,

# Reprinted at random: 2 records from the list
SMILES,Arbovirus inh,RecA intein inh,Mtb H37Rv,YopH inh,Mtb betalactam,others
O=C1CN(/N=C/c2ccc([N+](=O)[O-])o2)C(=O)N1,-1.5,0.0,-2.2%,-38.1,69.0,
c1ccc2c(c1)CCCn1nnnc1-2,0.2,-0.5,-5.4%,-43.2,-0.3,
